PK Bst – pyruvate kinase (B. stearothermophilus) modulation; partly purified Bacillus stearothermophilus pyruvate kinase, luminescence ATP production; ribose 5-phosphate activator present at AC10; Potency, µM; 1.2% of 51,000 active; AID 361; in the data active means potency below about 11 µM; inconclusive means mostly about 12 µM to 25 µM; inactive means weaker than that;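 the screen sought inhibitors and activators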;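 note: potency is the fitted concentration of half-maximal effect; scaled between full activation by ribose 5 phosphate and full inhibition by luteolin; about four in five hits inhibit and the cells do not say which; series up to 57 µM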
YjeE inh – YjeE (TsaE) inhibition, E. coli; Potency, µM; P0AF67; purified YjeE, fluorescence polarisation of a bound ADP probe; 0.05% of 71,000 active; active = well fitted falling curve; inconclusive = weaker or top-dose-only fall, or a rising curve; inactive = flat or poorly fitted curve;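 note: top concentration of the series not given in the record; excess ADP was the control for the full effect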
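Purified YjeE (10 uM) with BODIPY Texas Red-labeled ADP probe (2 uM); compounds pin-transferred, 15 min at room temperature. Binding inhibition read as decreased fluorescence polarization; ADP titration as control.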
Numbers without * were called inactive; i = inactive; ? = inconclusive; . = not tested or not shown. Only part of the results is shown (hit frequency here may not be typical).

SMILES	PK Bst	YjeE inh
O=C(NCCO)c1scc2c1OCCO2	>57	i
CCOc1ccccc1C1C(C#N)=C(N)SC(N)=C1C#N	>57	i
CC1(C)CC(=O)C2=C(C1)NCN(CCCN1CCOCC1)C2	>57	i
O=C(CSc1nnc(-c2cccnc2)n1-c1ccccc1)Nc1ccc2c(c1)OCO2	?	i
CC(C)(C)NC(=O)Cn1nnc(-c2ccc(Cl)cc2)n1	>57	i
O=C(CS(=O)(=O)Cc1ccccc1)NCC1CCCO1 (stereo not given)	>57	i
CSc1nc(N2CCOCC2)c2c(c1C#N)CCCCC2	>57	i
COc1ccc(NC(=O)CCCNS(=O)(=O)c2cccs2)cc1	>57	i
FC(F)(F)c1cccc(N2CCN(Cc3ccoc3)CC2)c1	>57	i
Cc1ccccc1-c1ccc2ncnc(NCc3cccs3)c2c1	.	?
Nc1ncnc2c1ncn2[C@@H]1O[C@@H](CO)[C@H](O)[C@H]1O	.	i
CCn1ncc(Br)c1C(=O)N(C)C12CC3CC(CC(C3)C1)C2	>57	i
COC(=O)/C(=C1/Oc2cc(C)oc(=O)c2S1)C(F)(F)F	>25.6	.
Cc1ccc(C)c(C(=O)C(C)OC(=O)c2cccn2C)c1 (stereo not given)	>57	i
CCCn1c(C(O)c2ccc3c(c2)OCO3)nc2ccccc21 (stereo not given)	>57	i

Pulled by compound from the entries so far:
SMILES	PK Bst	YjeE inh
CCCn1c(C(O)c2ccc3c(c2)OCO3)nc2ccccc21 (stereo not given)	>57	i
O=C(CSc1nnc(-c2cccnc2)n1-c1ccccc1)Nc1ccc2c(c1)OCO2	?	i
COC(=O)/C(=C1/Oc2cc(C)oc(=O)c2S1)C(F)(F)F	>25.6	.
COc1ccc(NC(=O)CCCNS(=O)(=O)c2cccs2)cc1	>57	i
O=C(CS(=O)(=O)Cc1ccccc1)NCC1CCCO1 (stereo not given)	>57	i
CC1(C)CC(=O)C2=C(C1)NCN(CCCN1CCOCC1)C2	>57	i
FC(F)(F)c1cccc(N2CCN(Cc3ccoc3)CC2)c1	>57	i

New compounds follow:
SMILES	PK Bst	YjeE inh
Fc1ccc(-c2cc(C(F)(F)F)nc(-n3cncn3)n2)cc1	i	i
COc1ccc(F)c(C2C(C#N)=C(N)Oc3n[nH]c(C(C)(C)C)c32)c1 (stereo not given)	>57	i
O=C(COC(=O)CCC(=O)Nc1nccs1)NCc1ccco1	>57	i
O=C(OCC(=O)N1CCCCCC1)c1cccs1	>57	i
CN1C(=O)C(=C2CCCCCC2)SC1=S	>57	i
CCOC(=O)C1CCCN(C(=O)c2cn(C)c3ccc(S(=O)(=O)N(C)C)cc3c2=O)C1 (stereo not given)	.	i
CN(CC(=O)N1CCc2ccccc21)S(=O)(=O)c1cccc2cccnc12	.	i
O=C(Nc1ccc(S(=O)(=O)N2CCc3ccccc32)cc1)c1ccco1	.	i
COc1ccc(N/C=C2/CCCCC2=O)cc1	.	i
O=C(COC(=O)CCc1c[nH]c(=O)[nH]1)Nc1ccccc1	>57	i
O=C(O)c1ccc(S(=O)(=O)N=Nc2c(O)[nH]c3ccccc23)cc1	.	i
CCC(CC)C(=O)NCCc1cc2ccc(OC)cc2[nH]c1=O	>57	i
CCn1nccc1C(=O)Nc1nccs1	>57	i
O=c1cc(CN2CCN(C/C=C/c3ccccc3)CC2)c2cc(O)ccc2o1	>57	i
CCOC(=O)CSc1nc2ccccc2c(=O)n1CCCCCC(=O)NCc1ccco1	>57	i

In the list so far, these contain an aryl thioether with sulfur outside any ring:
SMILES	PK Bst	YjeE inh
O=C(CSc1nnc(-c2cccnc2)n1-c1ccccc1)Nc1ccc2c(c1)OCO2	?	i
CSc1nc(N2CCOCC2)c2c(c1C#N)CCCCC2	>57	i
CCOC(=O)CSc1nc2ccccc2c(=O)n1CCCCCC(=O)NCc1ccco1	>57	i

Next part
SMILES	PK Bst	YjeE inh
COc1ccc(Cn2c(SCC(=O)NCc3ccco3)nc3ccsc3c2=O)cc1	>57	i
C[C@H]1CCCC=CC2C[C@H](OC(=O)CN(C)C)C[C@@H]2[C@@H](O)/C=C\C(=O)O1 (stereo not given in full)	.	i
COC(=O)[C@@]1(Cc2ccccc2)[C@H]2c3cc(C(=O)N4CCCC4)[nH]c3C[C@H]2CN1C(=O)c1ccccc1	.	i
COc1ccc(Nc2cccccc2=O)cc1	.	i
O=c1oc2ccccc2c(O)c1/C=N/c1nc(-c2ccc(O)c(O)c2)cs1	.	i
CCOC(=O)CSc1nncc2ccc(OC)c(OC)c12	>57	i
Cc1cccc2cc(C(c3nnnn3CC3CCCO3)N3CCOCC3)c(=O)[nH]c12 (stereo not given)	>57	i
CCCSc1nnc(Cc2cc(=O)[nH]c(=O)[nH]2)n1-c1cc(C)ccc1C	>57	i
CCOc1ccc(CCNc2cc(C)nc3ncnn23)cc1OCC	.	i
COc1ccccc1-n1cnc2cc(NS(=O)(=O)c3ccccc3)ccc21	>57	i
Oc1oc(-c2ccco2)nc1C=Nc1cccc(Cl)c1	i	.
CCCCn1c(SCC(=O)N2CCC(C)CC2)nc2cc(S(N)(=O)=O)ccc21	>57	i
O=C1C2CC=C(Cl)CC2C(=O)N1CCc1c[nH]c2ccccc12 (stereo not given)	.	i
Cc1ccc(N2CCCCn3c2nc2c3c(=O)n(CC(=O)O)c(=O)n2C)cc1	>57	i
O=C(OCCN1CCCC1)C1(c2ccccc2)CCCC1	>57	i
CCOC(=O)c1c(C)c(C(=O)N2CCN(C(=O)c3ccco3)CC2)c(C)n1C	>57	i
CC1CN(C(=O)c2ccc(COCC(F)(F)F)o2)CC(C)O1 (stereo not given)	>57	i
CCCN(CCC)CCCNC(=O)c1cc2c(=O)n(C)c3ccccc3c2n1C	.	i
Cc1c(N)cccc1N	.	i
C=CCn1c(SCC#N)nc2c(c1=O)C(C)(C)Cc1ccccc1-2	>25.6	.
CC1(O)N(Cc2ccccc2)C(=O)OC12CCCCC2 (stereo not given)	.	i
CCCCn1c(CN(C)Cc2ccccc2)nc2c1c(=O)n(C)c(=O)n2C	>57	i
COCCCN1C(=O)c2ccc(C(=O)NCc3ccco3)cc2C1=O	>57	i
Cc1ccc2cc(CCNC(=O)C(C)C)c(=O)[nH]c2c1C	.	i
COC(=O)c1ccc(-c2sc3nc(N4CCOCC4)c4c(c3c2N)CC(C)(C)OC4)o1	>25.6	.
CC1(C)Cc2c(c(-c3ccco3)[nH]c(=O)c2C#N)CO1	>57	i
OCC1OC(n2nnc3ccccc32)C(O)C(O)C1O (stereo not given)	>57	i
CCOC(=O)c1cccc(NC(=O)Cn2c(CC(=O)N3CCCC3)nc3ccccc32)c1	>57	i
CC1(c2ccc(Cl)cc2)NC(=O)N(CC(=O)N2CCCC2)C1=O (stereo not given)	>57	i
CCOC(=O)CC(=O)CSc1ccc2nnc(-c3cccc(F)c3)n2n1	>57	i
CCN(CC)CCNC(=O)Cn1nc(-c2ccc(C)cc2)ccc1=O	>57	i
O=C1CC(Cc2ccc(Cl)cc2)C(=O)N1c1ccccn1 (stereo not given)	>57	i
CC(=O)[C@]1(O)CC[C@@H]2[C@H]3C[C@@H](C)C4=CC(=O)CC[C@@]4(C)[C@H]3[C@@H](O)C[C@]21C	.	i
Cn1c(=O)[nH]c(=O)c2c1nc(SCCN1CCCCC1)n2CCCc1ccccc1	>57	i
CC1CCCCN1C(=O)c1ccc(S(=O)(=O)N2CCCCC2C)cc1 (stereo not given)	.	i
CCC(CC)NC(=O)c1cc(OC)c(OC)c(OC)c1	.	i
COc1cccc2c(=O)n(CC(=O)N3CCCc4ccccc43)ccc12	.	i
COc1ccc(CCN2CNc3c(c(=O)n(C)c(=O)n3C)C2)cc1	>57	i
CC(=O)NCCNc1nc(-c2ccc(C(=O)N(C)C)cc2)nc2ccccc12	.	i
COc1cc(C(=O)OCC(=O)Nc2cc(C)on2)ccc1OCc1ccccc1Cl	>57	i
O=C1CCc2cc(S(=O)(=O)N3CCCC3C(=O)N3CCN(c4ccccc4)CC3)ccc2N1 (stereo not given)	.	i
O=C(O)CCCCCNC(=O)CCn1cnc2ccccc2c1=O	>57	i
COc1ccc(NC(=O)CSc2nnc(Cc3cccn3C)n2-c2ccc(C)cc2)cc1OC	>57	i
CC(=O)N1CCN(CCN(CC2C(C)C=C(C)CC2C)C(C)=O)CC1 (stereo not given)	>57	i
O=C(Nc1cc(=O)c2ccccc2o1)N1CCCCC1	>57	i
O=C(c1ccco1)c1nnn(Cc2ccccc2)c1-c1ccccc1	.	i
CC1CN(C(=O)N(C)C)CCN1C(=O)N(C)C (stereo not given)	.	i
N#Cc1ccc(CN2CC3(CCN(C(=O)c4ccncc4)CC3)C2)cc1	.	i
CCOC(=O)c1cnc(SC)nc1Nc1cccc(F)c1	.	i
CC1Cc2ccccc2N1C(=O)CSc1nnc(CNc2ccccc2)o1 (stereo not given)	>57	i
O=S(=O)(c1ccc(Cl)cc1)N1CCC(N2CCCCCC2)CC1	>25.6	.
Cn1c(SCc2ccc(F)cc2)nnc1-c1ccccn1	>57	i
Clc1cccc(-c2cc3nc4c(c(N5CCOCC5)n3n2)CCCC4)c1	.	i
COc1cc(OC)cc(C(=O)Nc2cccc(N3CCCC3)c2)c1	>57	i
N#CCCn1c(=O)c(CCc2ccccc2)nc2cnc(OCc3ccccc3)nc21	.	i
O=C(NCc1ccco1)c1cc2n(n1)C(C(F)(F)F)CC(c1ccc(Br)cc1)N2 (stereo not given)	>57	i
Cc1nc(N=Nc2cc(S(=O)(=O)O)ccc2S(=O)(=O)O)c(COP(=O)(O)O)c(C=O)c1O	.	i
COc1cc(C(=O)NCCC(=O)NCc2ccc3c(c2)OCO3)cc(OC)c1OC	>57	i
COCCC(=O)NC12CC3CC(CC(C3)C1)C2	>57	i
COc1ccccc1N1CCN(C(c2cccs2)C(C)NS(=O)(=O)c2ccccc2)CC1 (stereo not given)	.	i

Further compounds
SMILES	PK Bst	YjeE inh
Cn1c(=O)c2c(nc(SCC(=O)c3cccs3)n2Cc2ccc(F)cc2)n(C)c1=O	>57	i
Cc1nc2nc(Cc3ccccc3)[nH]n2c(=O)c1Cc1ccccc1	>57	i
C=CCNc1nc(N2CCCC2)nc2ccccc12	.	i
c1n[nH]c(NCc2ccc3c(c2)OCO3)n1	>57	i
COc1cc(-c2nc(S(=O)(=O)c3ccc(C)cc3)c(N(C)C)o2)cc(OC)c1OC	i	i
COc1ccc(NS(=O)(=O)c2ccc3c(c2)CCC(=O)N3)c(OC)c1	>57	i
COc1ccc(S(=O)(=O)N(C)c2ccc(C(=O)N3CCOCC3)cc2)cc1OC	>57	i
COc1ccc(-c2noc(C3CCCN(C(=O)CCc4ccccc4)C3)n2)cc1 (stereo not given)	>57	i
COc1ccc(N(CC(=O)O)S(=O)(=O)c2cccnc2)cc1	>57	i
CN(C)S(=O)(=O)c1ccc(S(=O)(=O)N(CC(=O)Nc2ccccc2)Cc2ccco2)cc1	>57	i
Cc1ccnc(SCCn2c(N3CCOCC3)nc3c2c(=O)n(C)c(=O)n3C)n1	>57	i
COC(=O)c1c(C)noc1-c1cc(C)on1	>25.6	.
CSc1nsc(SCC(=O)N2CCCc3ccccc32)n1	i	i
CC1Cn2c(nnc2-c2cccc(Cl)c2)S1 (stereo not given)	.	i
COc1ccccc1C(=O)N1CCN=C1SC	>57	i
CCOC(=O)c1c(-c2ccc(C)o2)csc1NC(=O)CN1CCN(CC)CC1	.	i
CC(C)C1Cc2c(sc3c2c(=O)n(-c2ccccc2)c2nncn32)CO1 (stereo not given)	>25.6	.
CCOc1ccc(CN2C(=O)CCC2(C)C(=O)NCc2cccnc2)cc1 (stereo not given)	.	i
CCCCCCC1CC(CSc2ncn[nH]2)OC1=O (stereo not given)	>57	i
CC1CCCCN1C(=O)Cn1cc(C(=O)c2ccco2)c2ccccc21 (stereo not given)	>57	i
O=C(CN1C(=O)C2C3C=CC(C3)C2C1=O)NCC1COc2ccccc2O1 (stereo not given)	>57	i
CCOC(=O)c1cc2n(c1N)-c1ccccc1C2=O	.	i
Cc1nc2ncnn2c(C)c1CCC(=O)Oc1ccccc1	>57	i
CSc1ccc(C2Nc3ccccc3-c3cc(C)nn32)cc1 (stereo not given)	i	i
C=CCn1c(NCc2cc(C)ccc2O)nc2ccccc21	.	i
CC(C)[C@@H](CC(=O)N[C@@H]1CCNC[C@H]1C(=O)N[C@H](CC(=O)N[C@@H](CCC(=O)O)CC(=O)O)Cc1ccccc1)NC(=O)C[C@H](Cc1ccccc1)NC(=O)[C@@H]1CNCC[C@H]1N	.	i
O=C(O)[C@@H]1[C@@H](C(=O)O)[C@]23C[C@@]2(C(=O)O)[C@]2(C(=O)O)CCC3=C3CCCC312	.	i
CCCCNC(=O)C(c1ccc(OCC(=O)OC)c(C(=O)OC)c1)N(Cc1ccccn1)C(=O)CCCCCN1C(=O)NC(c2ccc(-c3ccccc3)cc2)C(C(=O)OCc2ccccc2)=C1C (stereo not given)	.	i
O=C(c1ccc(-c2ccccc2)cc1)N1CCN(Cc2ccccn2)CC1	.	i
CCOC(=O)Cc1c(C)nc2cc(-c3ccc(Cl)cc3)[nH]n2c1=O	.	i
COc1ccc2oc(=O)c(C(=O)N3CCc4ccccc43)cc2c1	>57	i
Cc1ccccc1OCC(O)Cn1c(NCCN(C)C)nc2c1c(=O)n(C)c(=O)n2C (stereo not given)	.	i
O=C(NCCc1ccccc1)C1CCN(S(=O)(=O)c2cccc3nsnc23)CC1	>57	i
CCC(C)(C)N=C(NC#N)Nc1cccnc1	.	i
CCC(C)NC(=O)C1c2ccccc2C(=O)N1Cc1cc(OC)ccc1OC (stereo not given)	>57	i

Entries of single compounds, quoted from the list. Order of screens: PK Bst	YjeE inh
`COc1ccc(NC(=O)CCCNS(=O)(=O)c2cccs2)cc1` reads >57	i
`Cc1ccccc1OCC(O)Cn1c(NCCN(C)C)nc2c1c(=O)n(C)c(=O)n2C` (stereo not given) reads .	i
